PINK1 modulator: A Quantitative High throughput Screen to Identify Chemical Modulators of PINK1 Expression; PINK1 immunofluorescence, high-content cytometry, 24 h; Potency, µM (series often up to 76.6 µM), for inactives: at the highest dose activation (PINK1 increase), usual class: activators; actives 0.2% (n = 410,000); AID 624263, 2012; active = well fitted activation curve with a large enough effect; inconclusive = small, poorly fitted or top-dose-only effect; inactive = flat fitted curve, though single readings scatter; cell line not stated here;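 note: potency is the fitted concentration of half-maximal effect; % of control where 0% means no effect; nearly all actives have a fitted effect of over 65% in size; a mitochondrial uncoupler was the plate control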
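Measures PINK1 amount and localization on or inside mitochondria by immunofluorescence. Stable cells get compounds at 5 concentrations for 24 hours before fixation and staining; CCCP controls included.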
D2 agonist: Beta-Arrestin HTS for Positive Allosteric Modulators of the Human D2 Dopamine Receptor: Agonists; actives 0.084% (n = 360,000); activation, % (concentration not given with the values); DiscoveRx PathHunter D2 beta-arrestin, luminescence, 90 min; 100% = 57 uM dopamine signal; D(2) dopamine receptor (Homo sapiens), P14416; in the data active = activation above about 40%; inconclusive = about 15% to 40%; inactive = below about 15%; note: compound concentration not given in the record; the text of the record calls up to 30% inactive
Target sequence (P14416 whole entry, looked up): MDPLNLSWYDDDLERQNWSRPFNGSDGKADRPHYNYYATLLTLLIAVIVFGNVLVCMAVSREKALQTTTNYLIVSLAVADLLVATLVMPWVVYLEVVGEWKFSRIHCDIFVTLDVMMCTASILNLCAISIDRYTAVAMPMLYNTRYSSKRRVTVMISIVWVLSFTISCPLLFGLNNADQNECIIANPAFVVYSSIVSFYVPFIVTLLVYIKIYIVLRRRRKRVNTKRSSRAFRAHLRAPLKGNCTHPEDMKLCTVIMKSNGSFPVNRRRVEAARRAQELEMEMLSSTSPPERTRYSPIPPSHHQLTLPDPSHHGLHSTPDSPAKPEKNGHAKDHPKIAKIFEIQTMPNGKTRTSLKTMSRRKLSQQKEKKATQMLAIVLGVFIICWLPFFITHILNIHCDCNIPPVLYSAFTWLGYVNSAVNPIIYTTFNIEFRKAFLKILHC
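Agonist mode: compounds alone added to overnight-plated D2 PathHunter cells for 90 min at 37 C, with 57 uM final dopamine (EC100) defining full response. Beta-arrestin recruitment detected by chemiluminescent reagent, read after 1 h at ambient temperature.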
gsp antag: qHTS for Antagonists of gsp, the Etiologic Mutation Responsible for Fibrous Dysplasia/McCune-Albright Syndrome: qHTS | gsp-mutant cells, cAMP HTRF, 30 min; control for the full effect not named in the record | Potency, µM (doses to about 76.9 µM), for the others: at the top dose activity change, negative = inhibition, hits mostly inhibitors | actives 0.4% (n = 340,000); active = falling curve of any shape with a large fitted effect; inconclusive = falling curve, mostly with a smaller effect; inactive = flat or rising curve; cell line not stated here;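 note: intracellular cAMP measured with PDE inhibitor Ro 20-1724 present during compound exposure; potency is the fitted concentration of half-maximal effect; % is set by controls: 0 for no effect and ±100 for the full control effect; nearly all actives have a fitted effect of over 65% in size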
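HTRF cAMP read-out (cAMP-d2 plus anti-cAMP antibody-K in lysis buffer, 30 min RT). Before lysis, cells are exposed to compounds with […] for 30 min at 37C in DPBS containing Ca/Mg, BSA and Tween 20.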
ClpP mod: qHTS Assay for Activators of ClpP | purified B. subtilis ClpP, FRET peptide cleavage, 20 min | Potency, µM (doses to about 57.5 µM), inactives show at the top dose activity change, negative = active | actives 1.9% (n = 340,000); active = well fitted falling curve with a large enough effect; inconclusive = small, poorly fitted or top-dose-only effect; inactive = no such curve, though single readings can be large or run the other way; note: potency is the fitted concentration of half-maximal effect; the source files actives as falling curves though it sought activators and does not explain the sign; nearly all actives have a fitted effect of over 65% in size; many hits overshoot -100%
Target sequence (P80244 whole entry, looked up): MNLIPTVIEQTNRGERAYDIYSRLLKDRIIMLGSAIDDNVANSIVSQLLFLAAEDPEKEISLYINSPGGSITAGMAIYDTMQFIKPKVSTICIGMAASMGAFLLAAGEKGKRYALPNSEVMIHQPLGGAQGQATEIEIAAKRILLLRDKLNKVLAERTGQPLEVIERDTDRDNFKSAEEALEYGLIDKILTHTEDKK
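Purified B. subtilis ClpP, 10 microg/mL final in Tris/HCl pH8 with KCl, BSA, glycerol and Tween-20, cleaved an Abz/nitrotyrosine-quenched decapeptide. Fluorescence (ex 320, em 430) was read at 0 and 20 min at room temperature. Delta was normalized to 5.8 microM ADEP and DMSO/no-enzyme controls.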
Sfp PPTase inh: qHTS Assay for Inhibitors of Bacillus subtilis Sfp phosphopantetheinyl transferase (PPTase). Biochemical Sfp PPTase activity, qHTS. Potency, µM, for inactives: max response, negative = inhibition, actives largely listed as inhibitors. actives 3.5% (n = 310,000). AID 1490, 2009; active = well fitted inhibition curve with a large enough effect; inconclusive = small, poorly fitted or top-dose-only effect, or another doubt; inactive = no such curve, though single readings can be large or run the other way;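 note: the enzyme is Sfp with the accession as filed and its product quenches rhodamine fluorescence; potency is the fitted concentration of half-maximal effect; 0% = enzyme reaction without inhibitor and -100% = no enzyme wells; top concentration of the series not given in the record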
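Buffer: 50 mM Hepes-Na pH 7.6, 10 mM MgCl2, 0.01% Nonidet P-40, 0.01% BSA. Enzyme 15 nM, pre-exposed to compound 15 min; substrates then added and fluorescence change tracked over 30 min.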
Menin-MLL FL inh: qHTS Assay for Inhibitors Targeting the Menin-MLL Interaction in MLL Related Leukemias: Competition With Fluorescein Labeled MLL-derived Peptide; Fluorescence polarization, fluorescein-MLL peptide displacement from menin; FP activity change, % at 61.4 µM; 290,000 tested, under 10 active; inconclusive = falling polarisation curve, or a change in total fluorescence; inactive = total fluorescence flat and polarisation flat or rising; no compound was filed as active; the % refers to the polarisation; negative = inhibition;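 note: % of control where 0% means no effect; inhibitors lower the polarisation; unlabelled MLL peptide was the positive control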
gsp ag: qHTS for Agonist of gsp, the Etiologic Mutation Responsible for Fibrous Dysplasia/McCune-Albright Syndrome: qHTS. gsp mutant cells, cAMP HTRF, 30 min; control for the full effect not named in the record. Potency, µM (titrated, usually from 76.9 µM), for inactives: at the highest dose activation (cAMP increase), most hits filed as activators. actives 0.13% (n = 340,000); active = well fitted activation curve with a large enough effect; inconclusive = small, poorly fitted or top-dose-only effect, or another doubt; inactive = no such curve, though single readings can be large or run the other way; cell line not stated here;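 note: phosphodiesterase inhibitor Ro 20-1724 added with compounds to block cAMP breakdown; potency is the fitted concentration of half-maximal effect; nearly all actives have a fitted effect of over 60% in size; about a fifth of the inactives were tested at one dose only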
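Cells stably selected in G418 were plated at 2000/well, grown 16-24 hr, then given compounds in DMSO with the PDE inhibitor […] (300 uM solution added) for 30 min at 37C; cAMP was read by HTRF.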
Active calls of the source: *; ? = inconclusive; . = not tested or not shown; [ ] = dose if it differs, or a comment.

SMILES	PINK1 modulator	D2 agonist	gsp antag	ClpP mod	Sfp PPTase inh	Menin-MLL FL inh	gsp ag
O=C(NCCc1cccs1)C12CN(Cc3ccccc3)CC1C(c1cccc([N+](=O)[O-])c1)=NO2 (centres undefined)	-0.7%	-3.1	2%	-3.7%	-19%	7.6	.
CN(CC(=O)Nc1ccc(Cl)cc1)C(=O)C1CCCC1	2.1%	-0.7	11%	.	.	.	16%[15.4 µM]
Cc1ccc(C(=O)N/C(=C/c2ccccc2)C(=O)NCc2ccncc2)cc1	1.4%	-2.7	-6%	1.2%	7%	-1.9	19%
Cc1ccc(NC(=O)CN(C)C(=O)CCOc2cccc(C)c2)cc1	9.1%	-1.6	-1%	2.8%	13%	5.2	-16%
COc1cc(-c2noc(C3CCCN(S(=O)(=O)c4cccc(Cl)c4)C3)n2)cc(OC)c1OC (centres undefined)	1.1%[38.3 µM]	-1.4	-1%	-9.4%	1%	1.6	6%
N#CCCN(C(=O)COC(=O)Cc1c[nH]c2ccccc12)c1ccccc1	2.0%	-5.2	-6%	-13%	.	.	-1%
CCOC(=O)[C@@H]1[C@H]2COc3cc(OC)ccc3[C@H]2N2C(=O)N(c3ccc(OC)cc3)C(=O)[C@]12C	-1.1%	-3.6	-6%	-4.3%	.	.	19%
Cc1ccc(S(=O)(=O)Nn2c(C)ccc2C)cc1	-1.2%	-1.1	1%	-1.8%	56µM*	?	-1%
CCN1CCN(C(=O)c2ccc(COc3ccc(Cl)cc3)o2)CC1	-0.5%	-2.6	-8%	-2.5%	7%	2.6	-26%
CCCCC(=O)NCc1ccc2c(c1)cc(C)n2C	-1.0%	-2.0	10%	-19%	-10%	?	-3%
CCCn1nc(C(=O)NNC(=O)CCCOc2ccc(OC)cc2)c2ccccc2c1=O	-0.9%	13	-9%	0.8%	.	.	1%
CCOc1ccc(NS(=O)(=O)c2ccc(C(=O)NCc3cccnc3)cc2)cc1	-2.5%	1.1	-9%	.	.	.	4%[15.4 µM]
CC(=O)N1CCN(c2nnnn2-c2ccccc2)CC1	-0.3%	-3.1	7%	1.1%	15%	-1.7	3%
O=C(CCCOc1ccc(Br)cc1)Nc1ccc(S(=O)(=O)N2CCOCC2)cc1	4.1%	2.2	-10%	.	.	.	-25%[15.4 µM]
CN(C)CCn1c2c(c(SCC(=O)Nc3cccc(C(F)(F)F)c3)nc1=O)CCCC2	1.1%	-0.5	1%	-5.9%	.	.	4%
O=C(Cn1cnc2cc([N+](=O)[O-])ccc2c1=O)Nc1ccc2c(c1)OCO2	0.4%	1.4	7%	.	5%	0.0	-7%
OCC1(C2=NOC(O)(C(F)(F)F)C2)CCCCC1 (centres undefined)	-1.8%[38.3 µM]	0.7	-9%	-1.5%	-10%	-2.4	?
COc1ccc(CCC(=O)N2CCN(S(=O)(=O)c3cccc(C(F)(F)F)c3)CC2)cc1OC	-0.9%	0.6	2%	-1.5%	.	.	6%
C/C(=N/NC(=O)CCCOc1ccc(Cl)cc1Cl)c1ccc(C)o1	3.2%	-3.2	-10%	-0.5%	15%	1.5	23%[15.4 µM]
Cn1nc(C(=O)OCC(=O)Nc2ccc(C(N)=O)cc2)c2ccccc2c1=O	0.4%	-4.5	-2%	-1.5%	.	.	-49%[inhibitor]
Cc1oc(-c2ccccc2F)nc1CSCC(=O)NC1CCCC1	0.4%	-2.8	-4%	-13%	9%	1.5	?
Cc1ccccc1CNCc1cccnc1	1.0%	2.2	-5%	-1.2%	15%	1.5	0%
Cc1nnc(NC(=O)CSc2nnc(-c3ccccc3)n2C)s1	-0.8%	-6.1	-20%	.	16%	-0.7	-12%[15.4 µM]
CC(=O)N1CCN=C1SCc1ccc(Br)cc1	1.7%	-6.2	8%	-0.7%	22%	0.6	15%
Cc1ccc(-c2nn(-c3ccccc3)cc2C2CC(c3cccs3)=NN2C(=O)CCC(=O)O)cc1 (centres undefined)	-0.3%	0.4	?	-19%	?	4.4	11%
Remaining list, next part.
SMILES	PINK1 modulator	D2 agonist	gsp antag	ClpP mod	Sfp PPTase inh	Menin-MLL FL inh	gsp ag
CN(CC1CCCN(CCc2cccc(C(F)(F)F)c2)C1)C(=O)c1ccco1 (centres undefined)	-0.1%	-6.7	3%	-1.5%	10%	.	21%
CCC1(CC)SC(N)=NC1=O	0.2%	0.9	-9%	.	.	.	11%
CCOc1ccc(NC(=S)N(CCc2c(C)[nH]c3ccc(C)cc23)Cc2ccco2)cc1	3.8%	-5.4	-13%	-1.5%	9%	9.1	?
Cc1[nH]c(=O)c(Cc2ccccc2)c(O)c1C#N	0.1%	-2.8	-2%	0.2%	.	.	-1%[15.4 µM]
Cn1c(NCc2ccccc2F)nc2cc(-c3cccc(C(F)(F)F)c3)sc2c1=O	9.2%	-1.7	.	-12%	.	.	.
CCC(=O)Nc1cccc(C2=NOC3(C2)C[C@@H](C(N)=O)N(C(=O)C2(C)CC2)C3)c1 (some centres undefined)	-0.6%	0.1	8%	-2.5%	-15%	-0.2	.
O=C(NCC1CCCO1)c1csc(Nc2cccc3ccccc23)n1 (centres undefined)	5.6%	-0.7	1%	-2.8%	18%	18	7%
Cc1cccc(N/N=C/c2ccc(C)s2)c1	?	3.7	5%	-0.2%	-3%	-3.6	9%
O=C(Nc1cccc(C(F)(F)F)c1)c1c(O)c2ccccc2[nH]c1=O	-0.7%	-3.2	4%	-1.3%	5%	-1.0	-16%
Cc1ccc2nc3n(c(=O)c2c1)-c1ncccc1C(=O)NC3Cc1ccc(O)cc1 (centres undefined)	0.1%	-4.6	.	-1.3%	.	.	18%
CCOc1ccc(NC(=O)C2CCC(C)(C(=O)O)C2(C)C)cc1 (centres undefined)	-1.2%	-1.3	-27%	0.0%	-3%	?	-6%
Cn1c(=O)c(-c2cccs2)nc2cnc(Oc3ccccc3)nc21	4.8%	.	.	.	9%	8.9	.
COc1ccccc1NS(=O)(=O)c1cc(C(=O)NCC(c2ccc(F)cc2)N2CCOCC2)ccc1C (centres undefined)	-2.5%	0.4	-3%	-3.2%	.	.	1%
O=C(/C=C/c1ccco1)N1CCN(S(=O)(=O)c2cccc([N+](=O)[O-])c2)CC1	0.0%	2.9	0%	-11%	.	.	5%
Nc1nc2c(ncn2[C@@H]2O[C@H](CNCc3cnc(N4CCOCC4)nc3)[C@@H](O)[C@H]2O)c(=O)[nH]1	-0.4%	-4.6	.	-6.3%	.	.	.
Cc1ccnc(NC(=O)CCC(=O)N(CC(=O)NCCc2ccccc2)Cc2cccs2)c1	1.3%	-4.3	-15%	-0.4%	21%	-1.4	-23%
Cn1cccc1Cc1nnc(SCC(=O)Nc2cccc(F)c2)n1-c1ccc(F)cc1	1.3%	-5.0	-6%	16%	-12%	-1.0	-2%
O=S1(=O)C=C(SCc2ccc(F)cc2)Nc2ccccc21	0.1%	-2.7	10%	-1.9%	-12%	4.2	-4%
O=C(CN1CCN(c2ccccn2)CC1)Nc1nc2ccccc2s1	-0.3%	6.4	-4%	-1.7%	25%	0.8	-33%[inhibitor]
Cc1cc(C(=O)O/N=C(\N)c2ccncc2)ccc1[N+](=O)[O-]	-1.0%	6.5	-6%	-2.3%	-1%	-1.5	-68%[inhibitor]
COc1ccccc1NC(=O)Cc1nnc(SCC(=O)Nc2ccccc2F)n1C	-1.0%	-2.5	4%	.	10%	3.0	17%[15.4 µM]
O=C(O)Cc1cc2c(s1)CCCCC2	0.8%	-0.6	2%	-0.8%	24%	-2.1	-28%
O=C(COc1ccc(Cl)cc1Cl)N(C1CCCCC1)C1CCS(=O)(=O)C1 (centres undefined)	-4.1%	0.7	-6%	0.7%	.	.	2%
Cc1cn([C@H]2C[C@H](O)[C@@H](CNCc3cccn3-c3ccncc3)O2)c(=O)[nH]c1=O	-1.3%	-2.9	.	-1.7%	.	.	?
N#Cc1c(NC(=O)CSc2ncn[nH]2)sc2c1CCCC2	-0.3%	1.8	-20%	0.6%	0%	3.5	-21%

Pulled by compound from the list above:
SMILES	PINK1 modulator	D2 agonist	gsp antag	ClpP mod	Sfp PPTase inh	Menin-MLL FL inh	gsp ag
CN(CC1CCCN(CCc2cccc(C(F)(F)F)c2)C1)C(=O)c1ccco1 (centres undefined)	-0.1%	-6.7	3%	-1.5%	10%	.	21%
CCOc1ccc(NC(=O)C2CCC(C)(C(=O)O)C2(C)C)cc1 (centres undefined)	-1.2%	-1.3	-27%	0.0%	-3%	?	-6%

More records follow:
SMILES	PINK1 modulator	D2 agonist	gsp antag	ClpP mod	Sfp PPTase inh	Menin-MLL FL inh	gsp ag
O=C(CSc1nnc(-c2ccccc2O)n1Cc1ccccc1)NNC(=O)c1ccccc1O	-0.8%	-0.3	-13%	-3.6%	22%	-1.3	16%
COc1ccc(-c2nc(C#N)c(NCc3ccc(C)cc3)o2)cc1OC	6.4%	-1.4	13%	32µM*	-7%	0.9	-42%[inhibitor]
CN(Cc1ccccc1)S(=O)(=O)c1ccc(NC(=O)c2ccccc2C(=O)O)cc1	1.5%	-3.0	0%	0.3%	.	.	?
Cc1nn(CC(=O)Nc2cc(S(=O)(=O)N(C)C)ccc2Cl)c(C)c1[N+](=O)[O-]	4.1%	-3.4	-8%	-6.7%	8%	3.1	-11%
Clc1ccc2nc3ccccn3c2c1	-4.2%	-1.8	5%	2.5µM*	16%	0.2	-3%
COCCCNC(=O)C1CCN(c2ncccn2)CC1	-3.0%	-3.9	4%	-7.4%	-6%	9.7	24%
Nc1c(Cl)cc(C2=NCCn3c2c2ccccc2[n+]3[O-])cc1Cl	0.9%	2.8	6%	-2.5%	.	.	1%
O=c1[nH]c2ccc(Cl)cc2c(-c2ccccc2)c1N1CCN(CCO)CC1	1.1%[38.3 µM]	-3.3	15%	-15%	-2%	3.7	-30%[inhibitor]
O=C(Cn1cnc2c(nnn2-c2ccccc2)c1=O)N1CCCc2ccccc21	0.2%	-4.2	-15%	-2.9%	-4%	0.4	-5%

Source: PubChem BioAssay
